From PubChem BioAssay
D2 agonist – Beta-Arrestin HTS for Positive Allosteric Modulators of the Human D2 Dopamine Receptor: Agonists; D(2) dopamine receptor (Homo sapiens), P14416; DiscoveRx PathHunter D2 beta-arrestin, luminescence, 90 min; 100% = 57 uM dopamine signal; activation, % (no concentration beside the values); 0.084% of 360,000 active; AID 624465, 2012; in the data active = activation above about 40%; inconclusive = about 15% to 40%; inactive = below about 15%; note: compound concentration not given in the record; the text of the record calls up to 30% inactive
Target sequence (P14416 whole entry, looked up): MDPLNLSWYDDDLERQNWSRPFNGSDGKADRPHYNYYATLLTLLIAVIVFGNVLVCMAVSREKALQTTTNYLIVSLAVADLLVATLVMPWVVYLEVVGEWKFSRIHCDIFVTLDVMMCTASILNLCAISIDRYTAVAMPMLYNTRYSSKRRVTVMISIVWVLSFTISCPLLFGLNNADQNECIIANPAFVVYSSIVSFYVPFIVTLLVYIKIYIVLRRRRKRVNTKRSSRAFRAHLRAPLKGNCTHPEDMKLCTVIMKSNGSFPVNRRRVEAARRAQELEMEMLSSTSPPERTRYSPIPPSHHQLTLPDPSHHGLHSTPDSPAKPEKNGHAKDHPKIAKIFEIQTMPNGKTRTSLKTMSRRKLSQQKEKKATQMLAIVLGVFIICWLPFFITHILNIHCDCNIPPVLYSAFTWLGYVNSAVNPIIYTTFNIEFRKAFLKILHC
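Agonist mode: compounds alone added to overnight-plated D2 PathHunter cells for 90 min at 37 C, with 57 uM final dopamine (EC100) defining full response. Beta-arrestin recruitment detected by chemiluminescent reagent, read after 1 h at ambient temperature.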
D2 PAM – Beta-Arrestin HTS for Positive Allosteric Modulators of the Human D2 Dopamine Receptor: Potentiators; AID 624464, 2012; DiscoveRx D2 beta-arrestin cells, luminescence, 90 min; 100% = 57 uM dopamine signal; 0.23% of 360,000 active; potentiation, % (test concentration not listed); D(2) dopamine receptor (Homo sapiens), P14416; active = potentiation of 50% or more; inconclusive = 30% to 50%; inactive = 30% or less;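 note: compound concentration not given in the record; tested on top of an EC20 dose of dopamine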
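PathHunter beta-arrestin assay in DiscoveRx D2 cells. Compounds were added with an EC20 of dopamine (50 nM final) for 90 min at 37 deg C. Luminescence was read 1 h after detection reagent, with 57 uM dopamine as the EC100 control.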
TRPML1 ag – qHTS for Agonists of the Human Mucolipin Transient Receptor Potential 1 (TRPML1); Mucolipin-1 (Homo sapiens), Q9GZU1; TRPML1-expressing cells, Ca2+ dye fluorescence, FDSS; host cell line not named in the record; reference of the full effect not given here; activation, % (concentration not given with the values); 0.12% of 410,000 active; in the data active = activation above about 50%; inconclusive = about 30% to 50%; inactive = below about 30%; note: 0% is about no effect; the text of the record puts the active cut at 80%
Target sequence (Q9GZU1 whole entry, looked up): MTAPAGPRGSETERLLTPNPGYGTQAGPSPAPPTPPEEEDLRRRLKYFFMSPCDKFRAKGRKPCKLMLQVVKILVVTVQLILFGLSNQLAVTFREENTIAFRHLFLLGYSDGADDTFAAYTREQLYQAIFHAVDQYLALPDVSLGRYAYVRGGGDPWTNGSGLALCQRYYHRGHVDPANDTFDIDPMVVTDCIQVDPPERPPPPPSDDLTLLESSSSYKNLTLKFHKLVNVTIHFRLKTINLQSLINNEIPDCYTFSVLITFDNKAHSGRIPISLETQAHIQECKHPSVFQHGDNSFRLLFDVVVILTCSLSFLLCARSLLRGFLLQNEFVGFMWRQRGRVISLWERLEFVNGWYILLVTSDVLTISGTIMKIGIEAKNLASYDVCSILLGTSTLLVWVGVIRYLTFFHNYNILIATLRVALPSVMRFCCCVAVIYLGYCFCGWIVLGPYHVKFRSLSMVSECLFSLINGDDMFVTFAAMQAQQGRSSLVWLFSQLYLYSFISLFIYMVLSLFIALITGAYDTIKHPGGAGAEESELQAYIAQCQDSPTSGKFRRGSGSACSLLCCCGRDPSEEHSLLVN
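Agonist activity was taken from a 110 s kinetic Ca2+ dye read on the FDSS after pinning compounds onto TRPML1-DL cells. The cells were seeded at 1,500/well with Tet inducer, incubated about 16 h, then dye-loaded at room temperature.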
PINK1 expr mod – A Quantitative High throughput Screen to Identify Chemical Modulators of PINK1 Expression | Potency, µM (series often up to 76.6 µM), without a hit: at the highest dose activation (PINK1 increase), actives largely listed as activators | 0.2% of 410,000 active | PINK1 immunofluorescence, high-content cytometry, 24 h; active = well fitted activation curve with a large enough effect; inconclusive = small, poorly fitted or top-dose-only effect; inactive = flat fitted curve, though single readings scatter; cell line not stated here;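 note: potency is the fitted concentration of half-maximal effect; % of control where 0% means no effect; nearly all actives have a fitted effect of over 65% in size; a mitochondrial uncoupler was the plate control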
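Decision-based qHTS: stable cells, 24 h exposure to five compound concentrations, CCCP as control. Fixed cells stained for PINK1 plus nuclear, mitochondrial and cell markers, cytometer read.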
Six1-Eya2 blk – qHTS Assay for Inhibitors of the Six1/Eya2 Interaction; 0.56% of 360,000 active; activity change, % (test concentration not listed); Homeobox protein SIX1 (Homo sapiens) + Protein phosphatase EYA2 (Homo sapiens), …; AlphaScreen GST-Six1/His-Eya2 binding, biochemical; active compounds read low; control for the full effect not named in the record; in the data active = activity change below about -65%; inconclusive = about -30% to -65%; inactive = above about -30%; note: % is set by controls: 0 for no effect and ±100 for the full control effect
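Homogeneous AlphaScreen proximity assay pairing GST-Six1 with His-tagged Eya2 (added as 5X mix: 250 nM and 500 nM) in 50 mM Tris pH 8.0, 300 mM NaCl, 1 mM TCEP. Glutathione donor and nickel acceptor beads; 1 h, 37 °C, dark.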
TRPML1 inh – qHTS for Inhibitors of the Human Mucolipin Transient Receptor Potential 1 (TRPML1); AID 624415, 2012; TRPML1-inducible cells, Ca2+ dye fluorescence, FDSS; active compounds read low; inhibition of EC80 agonist-evoked calcium signal; 0.02% of 390,000 active; activity change, negative = inhibition, % (no concentration beside the values); Mucolipin-1 (Homo sapiens), Q9GZU1; in the data active means activity change below about -50%; inconclusive means about -30% to -50%; inactive means above about -30%;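 note: stimulus is agonist 54-4 at its EC80 concentration; % is set by controls: 0 for no effect and ±100 for the full control effect; compound concentration not given in the record; the text of the record puts the active cut at -80%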
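Calcium fluorescence in TRPML1-DL cells induced overnight with Tet: a 110 s read after compound pin addition, then a 110 s antagonist read after challenge with 54-4 at 4 uM final (EC80).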
* = called active by the depositor; u = inconclusive; x = no result given; [ ] = dose if it differs, or a comment.

Results follow in this order: D2 agonist, D2 PAM, TRPML1 ag, PINK1 expr mod, Six1-Eya2 blk, TRPML1 inh
COc1ccc(OC)c(NC(=O)Nc2ccc3[nH]ccc3c2)c1
→ -2.2, -10, 1.0, -0.7%, -18, -6
CCCCN(CC)C(=O)c1cc2c(=O)n3ccccc3nc2n1C
→ x, x, -0.1, 2.2%, x, 15
CCCCn1c(N)c(N(CC(C)C)C(=O)CN(C)S(=O)(=O)c2ccc(NC(C)=O)cc2)c(=O)[nH]c1=O
→ -1.2, 21, -0.9, -0.8%, -1, 21
O=C(CN1CCCCCC1)Nc1cccc2c1OCO2
→ 1.5, -12, 0.0, -1.6%[38.3 µM], 2, -1
O=S(=O)(NCCC1CC1(Cl)Cl)c1ccccc1 (stereo unspecified)
→ -0.4, 3, -0.1, -0.3%, 11, -2
Cc1ccc(-c2n[nH]c(=S)n2/N=C/c2cccs2)cc1
→ -1.7, 16, 0.6, -0.5%, -10, -2
Cc1ccc(Cl)cc1N1CCN(C(=O)c2cnc3c(-c4ccc(F)cc4)c(C)nn3c2C)CC1
→ x, x, 1.0, 2.2%, x, -3
Cc1cccc(C)c1NC(=O)C(c1ccc(Cl)cc1Cl)N1CCCCC1 (stereo unspecified)
→ -3.8, 20, 7.3, 2.4%, 1, 64
COc1ccc(Cl)cc1N1C(=O)CC(Sc2ccccc2N)C1=O (stereo unspecified)
→ 2.1, -14, 1.0, 0.4%, -5, -14
O=C(CSc1nnc(-c2ccco2)o1)NC1CCCCCC1
→ -4.6, -23, -0.7, 0.6%, 5, -3
COC(=O)C1=C(C)Nc2ncnn2C1c1ccc(OC(=O)c2ccccc2)cc1 (stereo unspecified)
→ 1.3, -11, -0.3, x, -5, 8
COc1ccc(OC)c(/C=N/NC(=O)CNC(=O)c2cccc3ccccc23)c1
→ -3.4, -31, 1.6, 4.4%, -18, -29
Cc1cccc(NC(=O)Cc2coc3ccc4ccccc4c23)n1
→ 2.3, -3, 3.2, 11µM*, -11, 23
Cc1ccc(S(=O)(=O)N/N=C/c2ccc3nccnc3c2)cc1
→ -8.3, -45, x, 0.1%, 1, x
CC(=O)c1c(C(C)=O)c(C)n(NC(=O)c2ccccc2O)c1C
→ -2.2, -6, 0.9, -0.2%[38.3 µM], -3, 40
COC(=O)c1ccc(N=NN2CCOCC2)cc1
→ 0.1, -10, 0.0, 0.2%, 3, 4
CCCc1nc2c(s1)CCc1onc(-c3ccc(OC)cc3)c1-2
→ -1.3, -4, 0.1, 9.1%, 3, -6
Cc1nc(SCCC(=O)O)c2cc(-c3ccccc3)sc2n1
→ 2.5, -2, 0.0, -0.5%, -17, 13
Cc1ccc(Cl)cc1N1CCN(C(=O)CN(C2CCCCC2)S(C)(=O)=O)CC1
→ 0.6, -5, -0.5, 1.6%, -1, -12
COc1ccc(OCC(=O)N/N=C/c2ccc(O[C@@H]3O[C@H](CO)[C@@H](O)[C@H](O)[C@H]3O)cc2)cc1
→ -2.3, -3, -0.3, -1.0%, -1, 21
CCOCCOC(=O)C1=C(C)NC(=O)NC1c1cc2c(cc1Br)OCO2 (stereo unspecified)
→ -5.5, -2, 0.2, 0.8%, 5, -14
CCOC(=O)c1cc(-c2ccncc2)nc2c1c(C)nn2C
→ -3.2, -10, 1.1, -0.4%, -2, 17
CC(C)C(NCC(=O)Nc1ccccc1C(=O)NC1CC1)c1ccccc1 (stereo unspecified)
→ 0.1, -3, -0.8, -2.3%, 7, -1
O=C(O)C(Cc1ccccc1)N1C(=O)/C(=C/c2cccs2)SC1=S (stereo unspecified)
→ -1.6, -2, 0.0, -0.1%, u, 5
COc1ccc(NC(=O)COc2ccccc2)c(OC)c1
→ -2.6, -23, 4.2, -1.7%, -1, -7
CC(C)C[C@H](NC(=O)C1CCC(CNC(=O)[C@@H]2CCCN2C(=O)OC(C)(C)C)CC1)C(=O)O (stereo partly specified)
→ 0.7, 1, 0.0, 4.3%, 12, -2
CCC(=O)Nc1sc(C(=O)Nc2ccccc2)c(C)c1C(=O)OC
→ -1.1, -5, 1.3, 0.5%, 4, 5
COc1ccc(-c2cc(-c3ccc(Br)cc3)nc3ncnn23)cc1OC
→ -4.2, -29, 5.0, 0.1%, 1, 10
Cn1c(=O)c2c(ncn2CC(=O)N/N=C/c2ccc(Br)s2)n(C)c1=O
→ -5.2, -32, 0.0, 2.5%, -23, -15
O=C(CSc1nc(C2CC2)nc2ccccc12)Nc1ccc2c(c1)OCCO2
→ -2.5, -2, 0.8, 4.7%[38.3 µM], -9, 0
CC(C)CCNC(=O)C(=O)Nc1c2c(nn1-c1ccccc1)CS(=O)(=O)C2
→ x, x, -0.4, 6.7%, x, -12
Cc1noc(C)c1S(=O)(=O)N(CC(=O)NCc1ccc(F)cc1)c1ccc(C(C)C)cc1
→ -1.4, -6, -0.2, 4.2%, 2, -10
COC(=O)C1CN(C(=O)C(C)Oc2ccc(F)cc2)c2ccccc2O1 (stereo unspecified)
→ 8.8, -5, 1.7, 1.9%, 0, 49
CC(C)c1ccc(N(C(=O)c2snc(C(N)=O)c2N)C(C(=O)NC2CCCC2)c2ccncc2)cc1 (stereo unspecified)
→ -2.9, -5, 1.2, 1.7%, -3, 7
CC(C)(C)c1ccc(NC(=O)COC(=O)CCc2nc3ccccc3c(=O)[nH]2)cc1
→ -1.7, -15, -0.6, 4.1%, 0, -3
O=C(NC(Cc1ccccc1)C(=O)NCc1ccccn1)c1ccco1 (stereo unspecified)
→ -1.7, -10, 0.6, 0.3%, 2, -18
Cc1ccc(CNC(=O)CCS(=O)(=O)c2ccc(Br)s2)cc1
→ 0.7, -1, 0.5, 2.3%, 5, -7
COCc1cc(=O)n2[nH]cc(-c3ccsc3)c2n1
→ 0.5, -6, -1.4, 0.1%, -7, -4
Cc1ccc(NC(=O)c2cc([N+](=O)[O-])ccc2Cl)c(O)c1
→ u, 3, 3.3, -1.4%, -2, 7
CCCn1cnc2cc(NCc3ccccc3O)ccc21
→ -1.5, -5, 1.9, -0.5%, -5, -8

Remaining list, next part
| SMILES | D2 agonist | D2 PAM | TRPML1 ag | PINK1 expr mod | Six1-Eya2 blk | TRPML1 inh |
| --- | --- | --- | --- | --- | --- | --- |
| COc1ccccc1-c1nnc2sc(-c3ccc(N(C)C)cc3)nn12 | -1.3 | -9 | 1.8 | 22% | -2 | 40 |
| Cc1[nH]n(-c2cccc(Cl)c2)c(=O)c1C=NCc1ccco1 | -0.5 | -6 | 0.9 | -0.1% | 5 | 11 |
| O=C(c1ccccc1NS(=O)(=O)c1cccc(C(F)(F)F)c1)N1CCc2ccccc21 | -1.8 | 7 | 0.1 | 6.5% | -19 | -3 |
| CCC1(O)CCCC2C3CCC4CC(=O)CCC4(C)C3C(=O)CC21C (stereo unspecified) | 0.1 | -1 | -0.3 | -0.5% | -9 | 8 |
| Cc1cc(C)n(-c2ccc(C(=O)Nc3cccc(S(=O)(=O)N4CCCC4)c3)cc2)n1 | 2.7 | -7 | 0.3 | -2.1% | u | -2 |
| N#C/C(=C/c1ccc(N2CCCCC2)o1)C(=O)Nc1ccc(Cl)cc1 | -0.4 | -14 | 61* | 13µM* | 3 | -11 |
| Cc1cc(=O)[nH]c(SCC(=O)OCc2ccccc2)c1C#N | 0.5 | -2 | 0.0 | -1.3% | -2 | -12 |
| c1csc(-c2nc(NCCCN3CCOCC3)c3ccccc3n2)c1 | -5.8 | -10 | -1.2 | -1.8% | -26 | 17 |
| O=C(Nc1ccc(C(=O)c2ccccc2)cc1)c1ccccc1 | 1.5 | -6 | -0.2 | -0.4% | 2 | 9 |
| Cc1ccc(NC(=O)COc2coc(CN3CCc4ccccc43)cc2=O)cc1Cl | -1.8 | -3 | 2.7 | -1.0% | 1 | -2 |

4 of these compounds, set out differently:
Compound: N#C/C(=C/c1ccc(N2CCCCC2)o1)C(=O)Nc1ccc(Cl)cc1
- D2 agonist = -0.4
- D2 PAM = -14
- TRPML1 ag = 61*
- PINK1 expr mod = 13µM*
- Six1-Eya2 blk = 3
- TRPML1 inh = -11
Compound: Cc1cc(=O)[nH]c(SCC(=O)OCc2ccccc2)c1C#N
- D2 agonist = 0.5
- D2 PAM = -2
- TRPML1 ag = 0.0
- PINK1 expr mod = -1.3%
- Six1-Eya2 blk = -2
- TRPML1 inh = -12
Compound: c1csc(-c2nc(NCCCN3CCOCC3)c3ccccc3n2)c1
- D2 agonist = -5.8
- D2 PAM = -10
- TRPML1 ag = -1.2
- PINK1 expr mod = -1.8%
- Six1-Eya2 blk = -26
- TRPML1 inh = 17
Compound: O=C(Nc1ccc(C(=O)c2ccccc2)cc1)c1ccccc1
- D2 agonist = 1.5
- D2 PAM = -6
- TRPML1 ag = -0.2
- PINK1 expr mod = -0.4%
- Six1-Eya2 blk = 2
- TRPML1 inh = 9

(list continues)
| SMILES | D2 agonist | D2 PAM | TRPML1 ag | PINK1 expr mod | Six1-Eya2 blk | TRPML1 inh |
| --- | --- | --- | --- | --- | --- | --- |
| CC1CCCCC1NC(=O)CCc1nc2sc3c(c2c(=O)[nH]1)CCCC3 (stereo unspecified) | -3.5 | -23 | 2.4 | 0.5% | 21 | 1 |
| N#CC1=C2Nc3ccccc3N2C(=O)NC1(c1ccccc1)C(F)(F)F (stereo unspecified) | 0.6 | 9 | -0.9 | 1.1% | 2 | -11 |
| C/C(Cn1cnc([N+](=O)[O-])n1)=N\NC(=O)c1cccc(F)c1 | -2.9 | -13 | -0.5 | -2.1% | -1 | -8 |
| Cc1ccc(C(=O)NCc2ccco2)cc1S(=O)(=O)Nc1cccc(Cl)c1 | 1.3 | 0 | 1.9 | -3.1% | -2 | 14 |
| Cn1nc(CC(=O)NCc2ccc(F)cc2)c2ccccc2c1=O | 6.7 | 13 | -0.9 | 0.9% | -3 | 23 |
| Cc1nonc1NC(=O)CSc1ccccn1 | -5.8 | -5 | -0.5 | -0.7% | 2 | -6 |
| Cc1ccc2[nH]c(=O)c(COC(=O)c3cccs3)cc2c1 | 1.8 | 0 | 0.9 | 2.4% | 9 | -10 |
| Cc1cccc(NC(=O)c2cc(S(=O)(=O)NCCc3ccccc3)ccc2F)c1C | x | x | 2.8 | 0.8% | x | 39 |
| O=C(NC1CCCC1)C1CC(=O)N(c2ccccc2)C1 (stereo unspecified) | 2.3 | 0 | 0.7 | -0.3% | 3 | 2 |
| Cc1ccc(CN2C(=O)C(C)(C)Oc3ccc(C(=O)N4CCCCC4)cc32)cc1 | -2.5 | -4 | 1.1 | 2.3% | -2 | 33 |
